# High-throughput results deposited in PubChem BioAssay by Fisher Drug Discovery Resource Center.
# NPYLR7 agonist – activates Aedes aegypti NPYLR7 receptor. HEK293T NPYLR7/Galpha15, GCaMP6s calcium fluorescence. activation, % at 10 µM. actives 0.15% (n = 270,000); in the data active = activation above about 40%;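 also: 0% = vehicle and 100% = reference agonist at the receptor; some compounds past the cut are filed as inactive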
# NPYLR7 agonist max-min – further read-out of NPYLR7 agonist, marked with its call; activation, %; measured here: Max-Min RFU normalised activation; some inactives read as strong as hits;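 span of the calcium signal over five minutes; 0% = vehicle and 100% = native peptide agonist; compound fluorescence can raise it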
# * hit, by the source's call; & = joins results of further samples. The list is partial; the hit share may differ from the screen's.
1	CCCCNC(=O)c1c(O)nc2cc(C)ccn2c1=O
2	O=C(c1ccc(CSc2ccc(C(F)(F)F)cn2)cc1)N1C2CCC1CC(Oc1ccc(F)cc1F)C2 (centres undefined)
3	S=C(NCCN1CCOCC1)NC1CCSc2ccccc21 (centres undefined)
4	CCN(C)S(=O)(=O)N1CCC(c2n[nH]c(=O)n2Cc2ccccc2)CC1
5	Cc1noc(C)c1C(=O)Nc1nccs1
6	CCOC(=O)N(C)c1c(CC)nc2ccc(C(=O)N(C)CCCN(C)C)cn12
7	CCOc1ccc(C(=O)Oc2cc(C)[nH]c(=O)c2[N+](=O)[O-])cc1
8	CCc1ccccc1NC(=O)c1cn(C)c2c(=O)n(Cc3ccccc3)c(=O)[nH]c12

entry no. | 1 | 2 | 3 | 4 | 5 | 6 | 7 | 8
NPYLR7 agonist max-min | -3 | -1 | 3 | 1 | 21 | 6 | 5 | 2
NPYLR7 agonist | -4 | 0 | 1 | 3 | 2 | 12 | 4 | 4

9	COc1ccc(-c2cc(C(=O)N3CCN(C(=O)N4CCCCC4)CC3)c3ccccc3n2)cc1OC
10	COc1ccc(C(=O)N2CCSC23CCN(C(=O)c2ccc(C)c([N+](=O)[O-])c2)CC3)cc1
11	CCN(CC)CCCC(C)NC(=O)c1c(C)noc1-c1cccc(F)c1 (centres undefined)
12	Cc1ccc(S(=O)(=O)Nc2ccnc(C(=O)Nc3ccc(F)cc3F)c2)cc1
13	Cc1cc(C)cc(N(C)S(=O)(=O)c2ccc(OCC(=O)O)cc2)c1
14	Cc1ccc(C2(O)CCN(c3nc(-c4ccccc4)nc4c3CCC4)CC2)nc1
15	CC1(C(=O)Nc2cccc3c2CCCC3)CCN1C(=O)Cc1ccsc1 (centres undefined)
16	CC1CNC(=O)CCN1Cc1cn[nH]c1C(=O)O (centres undefined)

entry no. | 9 | 10 | 11 | 12 | 13 | 14 | 15 | 16
NPYLR7 agonist max-min | 0 | 5 | 0 | 4 | 12 | -14 | -8 | 15
NPYLR7 agonist | 3 | -6 | 1 | -4 | 14 | -7 | -1 | 23

# Rewritten tab-delimited: entries from further up.
no.	smiles	NPYLR7 agonist max-min	NPYLR7 agonist
13	Cc1cc(C)cc(N(C)S(=O)(=O)c2ccc(OCC(=O)O)cc2)c1	12	14
14	Cc1ccc(C2(O)CCN(c3nc(-c4ccccc4)nc4c3CCC4)CC2)nc1	-14	-7

# (cont.)
17	CCCN(Cc1c(-c2ccccc2F)noc1N1CCOCC1)C(=S)NCC
18	Cc1nc2ccccc2nc1N1CCCN(CC(=O)NC(C)C)CC1
19	Cc1cc(C(=O)N(CC(N)=O)C2CCCC2)nn1-c1ccccc1
20	COc1ccc(CCN(Cc2cccs2)C(=O)CN(C(=O)Nc2ccc(C)c(Cl)c2)C2CC2)cc1OC
21	O=C(Cn1cnc([N+](=O)[O-])n1)NC1CCCCC1
22	OC1CCN(CCn2ccnc2-c2cccc3c2oc2ccccc23)CC1
23	O=C(c1cc(F)c(F)cc1F)N1CCOc2ccc(CN3CCc4sccc4C3)cc2C1
24	COCC(C)NC(=O)Nc1c[nH]c2ccccc12 (centres undefined)

entry no. | 17 | 18 | 19 | 20 | 21 | 22 | 23 | 24
NPYLR7 agonist max-min | 5 | 2&-2 | 6 | -9 | -19 | 9 | 3 | -4
NPYLR7 agonist | 6 | 6&-1 | 9 | -3 | -7 | 12 | 15 | 0

# Entries by screen from the entries so far:
# NPYLR7 agonist max-min, compounds 17 to 22, in order: 5, 2&-2, 6, -9, -19, 9
# NPYLR7 agonist, compounds 17 to 22, in order: 6, 6&-1, 9, -3, -7, 12

# Going on with the list:
25	O=C1OC(c2ccco2)=N/C1=C\c1ccc(OCc2ccccc2)cc1
26	C=CCN(CC=C)C(=S)NC(=O)c1ccc(C)cc1
27	CCOC(=O)c1cc(-c2ccc(N3CCN(C(=O)c4ccno4)CC3)cc2)n(-c2ccc(F)cc2)n1
28	Cc1cc(C)cc(NC(=O)Nc2c(C)nc3cc(C)ccn3c2=O)c1
29	CCCCNC(=O)c1cc(-c2ccc(OC)cc2)nc2cc(-c3ccc(Cl)cc3)nn12
30	O=C(COc1ccccc1)N1CC(=O)N(Cc2cccc(F)c2)CC(O)C1 (centres undefined)
31	CC1(C)N=C(c2ccc(Br)cc2)C(=S)N1C(=O)c1ccccc1
32	CCC(=O)Nc1ccc(N2CCCC2)c(C(=O)NCCc2ccccc2)c1

entry no. | 25 | 26 | 27 | 28 | 29 | 30 | 31 | 32
NPYLR7 agonist max-min | -7 | -4 | -7 | 7 | 13 | 20 | 0 | 0
NPYLR7 agonist | -2 | -6 | -3 | 13 | 7 | 23 | 4 | 1

33	CC(=O)Oc1c(-c2ccc(N)cc2)c(-c2cccc(C)c2)nn1-c1cccc(C)c1C
34	Cc1ccc(-n2c(SCc3nc(C(=O)NCCc4ccc(Cl)cc4Cl)cs3)nnc2-c2ccccc2Cl)cc1
35	CCc1nc2c(OCc3ccc4c(c3)OCO4)cccn2c1N(C=O)Cc1ccccc1
36	Cc1c(Br)c(C(F)(F)F)nn1CC(=O)NCc1cccs1
37	COc1ccc(OC)c(-c2nccn2-c2ccc3nc(C)[nH]c3c2)c1
38	O=C(CN1C(=O)C2(OCCO2)c2cc([N+](=O)[O-])ccc21)c1cccc2ccccc12
39	COc1ccc(-c2cc3ccc4c(c3oc2=O)CN(C2CCS(=O)(=O)C2)CO4)cc1 (centres undefined)
40	CCc1nc(-c2nccn2CCSc2nccn2C)c(C)[nH]1

entry no. | 33 | 34 | 35 | 36 | 37 | 38 | 39 | 40
NPYLR7 agonist max-min | 41 | -2 | -8 | -7 | 7 | -10 | 13 | -6
NPYLR7 agonist | 39 | -7 | -3 | -2 | 6 | -6 | 8 | -2

# Two entries from above, reformatted.
entry | SMILES | NPYLR7 agonist max-min | NPYLR7 agonist
35 | CCc1nc2c(OCc3ccc4c(c3)OCO4)cccn2c1N(C=O)Cc1ccccc1 | -8 | -3
36 | Cc1c(Br)c(C(F)(F)F)nn1CC(=O)NCc1cccs1 | -7 | -2

# Remaining list, next part
41	N#Cc1ccc(N2CCC(SC3=Nc4ccccc4CS3)C2=O)cc1 (centres undefined)
42	COC(=O)c1ccc(NC(=O)CCCn2nc(-c3ccc(Cl)cc3)ccc2=O)cc1
43	COc1ccc(-n2nc(C(C)(C)C)cc2NC(=O)CN(CC(C)C)C(=O)COc2ccc(Cl)cc2)cc1
44	c1ccc(Sc2nc(N3CCOCC3)nc(N3CCOCC3)n2)nc1
45	Cc1ccc(C)c(-n2nc(C)cc2NC(=O)c2ccoc2)c1
46	COc1ccc(CCNc2nccn(-c3cc(C)c(Cl)cc3OC)c2=O)cc1OC
47	Cc1cccc(OCCN(C)C(=O)Cc2csc(NS(C)(=O)=O)n2)c1
48	Cc1cc2c(cc1C)[n+](C)cn2CC(O)COc1c(C)cccc1C (centres undefined)

entry no. | 41 | 42 | 43 | 44 | 45 | 46 | 47 | 48
NPYLR7 agonist max-min | 10 | 7 | 26 | -5 | 8 | -9 | 1 | 10
NPYLR7 agonist | 12 | 6 | 20 | -3 | 10 | -2 | 5 | 13

49	CCc1ccccc1-c1ncnc2[nH]ccc12
50	COCC(=O)N1CC(=O)N2CC(C)c3ccccc3C2C1 (centres undefined)
51	O=C(O)c1cc(Br)c[nH]1
52	Cc1ccc(O)c(NC(=O)c2cnn3c2NC(c2cccs2)CC3C(F)(F)F)c1 (centres undefined)
53	COc1cc(C)ccc1-c1c(-c2ccccc2)ncn1C(C)Cc1cnccn1 (centres undefined)
54	CC(=O)N[C@@H]1[C@@H](C(O)[C@H](O)CO)O[C@](O)(C(=O)O)C[C@@H]1O (some centres undefined)
55	CC(C)CN1CCC(NCCSc2ncn[nH]2)CC1
56	CC(C)c1nnc(NC(=O)c2cccc(I)c2)s1

entry no. | 49 | 50 | 51 | 52 | 53 | 54 | 55 | 56
NPYLR7 agonist max-min | 9 | 24 | 5 | 5 | 3 | -14 | -3 | 5
NPYLR7 agonist | 8 | 7 | 1 | 4 | 4 | -7 | -1 | 11

57	CC(C(=O)Nc1ccc(OCCc2ccccc2)nc1)n1cncn1 (centres undefined)
58	CCC(C(=O)NC1CCN(c2ccccc2C(=O)NC2CC2)CC1)c1ccccc1 (centres undefined)
59	c1cnc(N2CCCC(NCc3nc4c(s3)CCCC4)C2)nc1 (centres undefined)
60	CC(C)NC(=S)NN=C1CCCCCC1
61	CC1CCC(NC(=O)CSCc2nc3scc(-c4cccs4)c3c(=O)[nH]2)CC1 (centres undefined)
62	CCCCS(=O)(=O)N1CCCN(c2nc3cc(Cl)c(Cl)cc3nc2C(=O)OCC)CC1
63	Cc1ccc(C2NC(=O)N(C)C3=C2C(=O)N(CCN2CCCC2)C3)c(C)c1 (centres undefined)
64	CCc1cccc2c(-c3csc(=NC)n3C)c[nH]c12

entry no. | 57 | 58 | 59 | 60 | 61 | 62 | 63 | 64
NPYLR7 agonist max-min | -17 | 2 | 0 | -2 | 2 | 3 | -2 | 1
NPYLR7 agonist | -17 | 0 | 6 | -1 | 4 | 5 | -5 | 4

65	Cn1c(=O)[nH]c(=O)c2c1nc(CN1CCOCC1)n2Cc1ccccc1F
66	CCOC(=O)CCC(=O)N1CCN(C(C(=O)N(C)Cc2ccco2)C2CCCC2)CC1 (centres undefined)
67	COc1cccc(C(=O)N2CCN(c3ncnc4c3nnn4Cc3ccccc3)CC2)c1OC
68	COc1ccc(-n2nc(C(=O)NCc3ccccn3)c(=O)n(Cc3cccc(C)c3)c2=O)cc1
69	O=C(COc1ccccc1)NCc1cc(-c2cc3ccccc3o2)on1
70	Cc1ccc(C(=O)Nc2ccc(N3CCN(S(=O)(=O)c4cccc(Cl)n4)CC3)nc2)cc1
71	C=C(C)COc1ccc(C(=O)NCC(C)n2cncn2)cc1 (centres undefined)
72	O=C(c1cc2ccccc2[nH]1)N1CCN(CCN2CCCC2)CC1

entry no. | 65 | 66 | 67 | 68 | 69 | 70 | 71 | 72
NPYLR7 agonist max-min | -2 | 20 | -16 | 0 | 0 | 2 | -5 | 1
NPYLR7 agonist | -1 | 10 | -7 | -2 | 1 | -3 | 5 | 2

73	N#Cc1ccccc1CN1CCN(c2ncc(C(=O)NCC3CC3)s2)C1=O
74	Cc1ccc(C(=O)N(Cc2nccn2Cc2ccc(C(F)(F)F)cc2)CC(C)C)cc1
75	CCNC(=O)NC1CN(C(C)c2nc(C(C)(C)C)no2)C[C@@H]1OC (some centres undefined)
76	C=CCNC(=S)NN=Cc1ccc(C(F)(F)F)cc1
77	O=S(=O)(c1ccc(Cl)cc1C(F)(F)F)N(Cc1ccccc1F)C1CC1
78	O=C(NNC1CCS(=O)(=O)C1)c1ccc(Br)o1 (centres undefined)
79	CNCCC(Oc1ccccc1OC)c1ccccc1 (centres undefined)
80	CCNC(=O)C1(C)CCN(Cc2ccc(-c3ccccc3)cc2)C1 (centres undefined)

entry no. | 73 | 74 | 75 | 76 | 77 | 78 | 79 | 80
NPYLR7 agonist max-min | -7 | 15 | -1 | -14 | 6 | 2 | 5&-35 | 1
NPYLR7 agonist | -6 | 19 | 3 | -9 | 0 | 6 | 5&4 | 0

81	O=C(Cc1ccc(OC(F)F)cc1)Nc1cccnc1N1CCSCC1
82	COc1ccc(-c2cc(C(=O)N(CCN(C)C)Cc3ccccc3)n3nc(-c4ccccc4)cc3n2)cc1
83	O=C(CSc1nnc(-c2ccc(Cl)cc2)n1-c1ccccc1)N/N=C\c1ccc(Cl)cc1
84	COc1ccc(CCN(Cc2ccc(C)o2)C(=O)CN(C(=O)Nc2cccc(F)c2)C2CC2)cc1OC
85	C=CCn1c(SCC(=O)N2CCN(c3ccccc3)CC2)nc2sc(C)cc2c1=O
86	Cc1nc2ccccn2c1C=NNc1nc2ccccc2[nH]1
87	Cc1cc(-c2csc(Cc3ncc(Cl)n3C)n2)c(C)s1
88	Cc1ccccc1CN(C)C(=O)c1ccc2c(=O)n3c(nc2c1)CCC3

entry no. | 81 | 82 | 83 | 84 | 85 | 86 | 87 | 88
NPYLR7 agonist max-min | 1 | 12&23 | 4 | 8 | -1 | 1 | 1 | 4
NPYLR7 agonist | 3 | 8&22 | 9 | 8 | 1 | 3 | 1 | 3

# Arranged by formula weight (highest first): three of the compounds above.
77	O=S(=O)(c1ccc(Cl)cc1C(F)(F)F)N(Cc1ccccc1F)C1CC1
13	Cc1cc(C)cc(N(C)S(=O)(=O)c2ccc(OCC(=O)O)cc2)c1
28	Cc1cc(C)cc(NC(=O)Nc2c(C)nc3cc(C)ccn3c2=O)c1

entry no. | 77 | 13 | 28
NPYLR7 agonist max-min | 6 | 12 | 7
NPYLR7 agonist | 0 | 14 | 13

# Continued.
89	O=C(c1ccccc1F)N(CC(=O)N1CCc2sccc2C1COc1ccc(Cl)cc1)C1CC1 (centres undefined)
90	O=C(NCc1nnnn1-c1ccccc1)c1ccccc1C1CCNC1 (centres undefined)
91	O=C1C2=C(Nc3[nH]c(=O)[nH]c(=O)c3C2c2ccccc2)c2ccccc21 (centres undefined)
92	CCN(c1nc(N)c(C(=O)N=C(N)N)nc1Cl)C(C)C
93	Cc1ccccc1C(=O)N1C(C(=O)O)COC12CCN(C(=O)c1ccc(F)cc1)CC2 (centres undefined)
94	Cc1noc(-c2cccc(F)c2)c1C(=O)NCC1COC(C)(C)O1 (centres undefined)

entry no. | 89 | 90 | 91 | 92 | 93 | 94
NPYLR7 agonist max-min | 14 | 5 | -1 | -4 | 22 | 9
NPYLR7 agonist | 16 | 7 | 0 | 7 | 15 | -1
